Sa helicase inh: blocks Staphylococcus aureus DNA helicase. 0.05% of 120,000 active. purified S. aureus helicase, fluorescence unwinding assay; about half of the hits fall short of the stated cut. inhibition, %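 (tested at about 80 µM)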;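 active means both duplicates at 50% or more, or one of them with a favoured structure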;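 further: 0% = mean of negative control wells and 100% = mean of positive control wells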
MgrA-DNA mod: alters Staphylococcus aureus MgrA binding to DNA. fluorescence polarization. inhibition, %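 (about 10 µg/mL by stock and volumes)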. 0.13% of 84,000 active. AID 602314;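 active means above 50% in either of two replicates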;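 further: 0% = protein plus DNA without compound and 100% = DNA alone without protein; higher means less MgrA bound to DNA so lower polarization; one replicate is shown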
Starred values were filed as active, the others as inactive; . = not tested or not shown; & = joins results of further samples.

Structure | MgrA-DNA mod | Sa helicase inh
O=C(COc1ccc2ccccc2c1)N1CCN(Cc2ccncc2)CC1 | -2.9 | 14
CN1C(=O)NC(=O)/C(=C\C=C\c2ccco2)C1=O | 3.6 | 5
CC1C(c2cccs2)=[N+]([O-])C(C)(C(=O)c2ccc(F)cc2)N1O (stereo not given) | . | -1
NC(=O)Cn1cc(C(=O)c2ccccc2)c2ccccc21 | -2.8 | 6
COc1cc2c(c(OC)c1OC)CC(N)CCC2 (stereo not given) | 1.3 | 9
COc1ccc(CC(=O)Nc2ccc3c(C(F)(F)F)cc(=O)oc3c2)cc1OC | 0.5 | 4
Oc1cc2c(cc1CN1CC=C(c3ccccc3)CC1)OCO2 | . | 8
COc1cccc(CNCCc2c[nH]c3ccccc23)c1 | -1.8 | 4
c1ccc2c(CCNC3=NCCC3)c[nH]c2c1 | . | -7
CCOC(=O)c1cncn1C(C)c1ccccc1 (stereo not given) | 4.0 | 32
O=c1c2ccccc2[se]n1-c1ccccc1 | 1.7&6.2 | .
CC[C@@H](CO)NC(=O)[C@@H]1C=C2c3cccc4[nH]cc(c34)C[C@H]2N(C)C1 | 0.9 | .
CN1CCN(C(=O)COc2ccccc2O)CC1 | -4.9 | -5
CC1CCC(NCC(O)c2ccccc2)CC1 (stereo not given) | . | -8
O=c1cccc2n1CC1CC2CN(C(=S)NC2Cc3ccccc3C2)C1 (stereo not given) | . | -7
O=C(COc1ccccc1)N1CCN(Cc2ccccn2)CC1 | -4.9 | -9
O=C1c2ccccc2C(=O)N1c1ccc2c(C(F)(F)F)cc(=O)oc2c1 | -0.1 | .
Clc1ccc(CNc2nccs2)cn1 | -3.5 | .
CCOC(=O)c1[nH]c(C)c(C=C(C#N)C#N)c1C | 0.3 | -1
NCCc1ccc(F)cc1 | . | 3
O=C(COc1ccc(Cl)cc1Cl)NO | . | -18
CNCC(C)c1ccccc1 (stereo not given) | -1.1 | 20
c1ccc(CN2CCN(c3ccccc3)CC2)cc1 | 3.8 | 5
C=CCOC(=O)c1cc(-c2ccc(C=C3C(=O)NC(=S)NC3=O)o2)ccc1Cl | 2.7 | .
N#CC(C#N)=Cc1ccc(C(F)(F)F)cc1 | 0.0 | .
CSc1ncc(/C=C2/C(=O)NC(=O)N(C3CCCCC3)C2=O)cn1 | 12 | 6
O=C(c1ccc2c(c1)N(Cc1ccc(F)cc1)CCS2)N1CCC2(CC1)OCCO2 | . | 13
COc1cc2c3cc1Oc1c(OC)c(OC)cc4c1[C@@H](Cc1cccc(c1)Oc1ccc(c(O)c1)C[C@@H]3N(C)CC2)N(C)CC4 | 7.3 | .
COc1ccc(S(=O)(=O)NC(CC(=O)N2CCC3(CC2)OCCO3)c2ccco2)cc1 (stereo not given) | 0.4 | -4
CC1(C)CCC(C)(C)c2cc(-c3csc(CC#N)n3)ccc21 | 0.6 | .
CN(CC(=O)c1ccccc1Br)C1CCCCC1 | . | -6
COc1ccc2c(c1OC)CN1CCc3cc4c(cc3C1C2)OCO4 (stereo not given) | -1.0&-1.5 | 15
NCCc1ccc2c(c1)OCO2 | . | 0
O=C(c1cccs1)c1cn(Cc2ccccc2Cl)c2ccccc12 | 1.1 | -14
O=c1c2ccccc2[nH]c(=S)n1-c1ncn[nH]1 | . | -12
Nc1c(C(=O)OC2CCCCC2)c2nc3ccccc3nc2n1Cc1ccco1 | . | 7
CCCNC(=O)Cn1cnc2sc(C(=O)N3CCC4(CC3)OCCO4)c(C)c2c1=O | . | 9
C/C(O)=C(\C#N)C(=O)Nc1cc(Br)ccc1Br | 1.2 | .
Cc1ccc2c(c1)-c1cc(C)nn1C(c1cccnc1)N2 (stereo not given) | 1.0 | 8
CC(C)(C)OC(=O)C1=C(N)OC2=C(C(=O)CCC2)C12C(=O)Nc1ccc(Br)cc12 (stereo not given) | 3.4 | .
CC(C)(C)P(=O)(N1CCOCC1)N1CCOCC1 | . | 26
CC(N)Cc1ccc(O)cc1 (stereo not given) | 3.1 | .
CN1CCN(c2ncnc3nc[nH]c23)CC1 | . | 3
OCCN1CCN(Cc2ccccc2)CC1 | -0.1 | 8
CC1=C(C(=O)OC(C)C)C2(C(=O)Nc3ccccc32)C(C(=O)OCc2ccccc2)=C(N)O1 (stereo not given) | 0.7 | .
COc1ccccc1N1CCN(Cc2cnc(-c3ccccc3)[nH]2)CC1 | -3.0 | .
COC[C@H]1OC(=O)c2coc3c2[C@@]1(C)C1=C(C3=O)[C@@H]2CCC(=O)[C@@]2(C)C[C@H]1OC(C)=O | -0.6 | .
C[n+]1noc(NC(=O)C(F)(F)F)c1-c1ccccc1 | . | 10
CCN1CCN(c2ncc(Br)cn2)CC1 | . | -3
CN1C(=O)CCS(=O)(=O)C1c1ccc(Cl)cc1 (stereo not given) | 4.2 | .
O=C(Cc1ccccc1)OCCN1CCCCC1 | -3.8 | 10
C1=C(c2ccccc2)CCN(Cn2cnc3ccccc32)C1 | . | -4
Cc1nc2scc(C)n2c1C=C(C#N)C#N | . | 9
C=CP(=O)(O)c1ccccc1 | -2.9 | -4
CCN1CCN(c2ncnc3ccc(Br)cc23)CC1 | . | 5
CCC(C)C(=O)O[C@H]1[C@H](O)C2C(CN3CC(C)CCC3[C@@]2(C)O)C2C[C@]34O[C@]5(O)C(OC(=O)C(C)(O)C(C)O)CC[C@@]3(C)C5C(OC(C)=O)[C@@H](OC(C)=O)C4[C@@]21O (stereo not given in full) | 0.1 | .

Some of the entries so far, with values under each structure:
Values in the order: MgrA-DNA mod, Sa helicase inh
> Cc1nc2scc(C)n2c1C=C(C#N)C#N
    ., 9
> C=CP(=O)(O)c1ccccc1
    -2.9, -4

Additional compounds
Structure | MgrA-DNA mod | Sa helicase inh
S=C1NC2=C(CCc3ccccc32)C(c2cccnc2)N1 (stereo not given) | . | 24
CN(C)C(=O)O/N=C(\N)c1ccc(C2SCCS2)cc1 | 0.1 | .
CCc1ccc(-n2c(N3CCC(C)CC3)nc3ccccc3c2=O)cc1 | 1.2 | 9
COc1cccc(N2CCNCC2)c1 | -0.3 | .
COc1ccc(C(O)CN2CC=C(c3ccc(N(C)C)cc3)CC2)cc1 (stereo not given) | -1.1 | -38
CCCCCCCCCCCCCCCCOC[C@@H](O)COP(=O)([O-])OCC[N+](C)(C)C | -1.1 | .
CN(C)C(=O)Oc1nc(-c2cccs2)cc(C(F)(F)F)c1C#N | -3.0 | .
c1ccc(CCNCc2ccccc2)cc1 | -1.6 | 11
C=CCOC(=O)C1=C(C)OC(N)=C(C(=O)OCC)C12C(=O)Nc1ccccc12 (stereo not given) | -1.0 | .
Brc1cnc(N2CCNCC2)nc1 | -3.0 | .
COC(=O)c1cc(CCl)oc1C | 0.8 | 3
CCCCCn1c(=O)c(C(=O)Nc2ccccc2S(N)(=O)=O)c(O)c2ccccc21 | 1.0 | 9
CSc1nc2ccccc2c(=O)n1-c1ccccc1 | -0.2 | -2
CCN(CC)S(=O)(=O)c1cc(C(=O)Oc2cccc3cccnc23)ccc1Br | -2.0 | .
CCN1CCN(C(=O)COc2cccc(Br)c2)CC1 | -0.4 | -20
O=C(Cc1ccc(S(=O)(=O)N2CCCC2)s1)N1CCN(Cc2ccccc2)CC1 | . | -13
NC(Cc1ccccc1)c1nc2ccccc2[nH]1 (stereo not given) | -14 | 14
CC(C)COP(C)(=O)C(N)=O (stereo not given) | . | -7
C[C@@H]1C[C@@H]([C@H](O)CC2CC(=O)NC(=O)C2)C(=O)[C@@H](C)C1 | -1.4&1.0 | .
Cn1c(O)c(C=Nc2ccccc2)c(=O)n(C)c1=O | -0.4 | 0
OCC1CCCN2CCCCC12 (stereo not given) | 1.2 | .
COc1ccc(C(O)(C(=O)O)c2ccccc2)cc1 (stereo not given) | -6.2 | -1
Cc1cccc(N2CCNCC2C)c1 (stereo not given) | . | 3
C=C1C2CC[C@H]3[C@]4(C)C[C@H](OC5OC(CO)C(OS(=O)(=O)O)C(OS(=O)(=O)O)C5OC(=O)CC(C)C)C[C@@H](C(=O)O)[C@H]4CC[C@]3(C2)[C@H]1O (stereo not given in full) | 4.0 | .
NC(Cc1ccccc1)Cc1ccccc1 | -2.5 | 3
O=[P+](c1ccccc1)c1ccccc1 | 1.1 | 4
O=c1c2ccccc2[nH]c(=S)n1-c1ccc(F)cc1F | -0.4 | .
NC1=C(C(=O)OCc2ccccc2)C2(C(=O)Nc3ccc(Br)cc32)C2=C(CCCC2=O)O1 (stereo not given) | 1.6 | .
COC(C)C(O)(C(=O)OCC1=CCN2CC[C@H](O)[C@@H]12)C(C)C (stereo not given in full) | 1.6 | .
COC(=O)c1c(C)n(CCC2=CCCCC2)c2ccc(O)cc12 | 0.0 | 12
Cc1cc(C)c2c(n1)SCN(C)C2=N | -1.1 | .
C=CCN1C(=O)NC(=O)/C(=C/c2ccc(-c3ccc(Cl)c(C(=O)O)c3)o2)C1=O | 10 | .
CCOC(=O)c1cc(CC)sc1/N=C/C1C(=O)NC(=S)NC1=O | 22 | -18
CC12CC(c3ccccc3O1)C(C(=O)OCc1ccccc1)C(=O)N2 (stereo not given) | . | 4
CC12CCC3C4CCC(=O)C=C4CCC3C1CC[C@]2(C)O (stereo not given in full) | -3.0 | .
Cc1ccc(CN2CCN(CC(=O)N3CCC4(CC3)OCCO4)C2=O)cc1 | 0.1 | -10
Cc1nc2ccccc2c(=O)n1-c1cccc(C(F)(F)F)c1 | -1.2 | -5
C=CC1CN2CCC1CC2C(=O)c1ccnc2ccc(OC)cc12 (stereo not given) | 2.5 | .
CNC(=O)c1cn(C)c2ccccc12 | -3.7 | .
COC(=O)C1=C(N)Oc2c(c(=O)oc3ccccc23)C1c1cccnc1 (stereo not given) | . | 2
C/C(=N\O)C(=O)c1ccccc1 | -2.3 | .
CC(C)N1CCN(Cc2ccccc2)CC1 | . | -2
O=[N+]([O-])/C=C/c1c(F)cccc1Cl | -0.4 | .
CN1C(=O)N(C)C(=O)C(Cc2ccccn2)(Cc2ccccn2)C1=O | -1.7 | 4
CC[C@@H]1/C=C/C=C/C[C@H](C)[C@@H](O)[C@](C)(O)C(=O)[C@H](C)[C@@H](O)[C@H](C)C(=O)[C@H](C)[C@@H](O)[C@H](C)/C=C/C(=O)O[C@H]2[C@@H](C)[C@@H](CC1)O[C@@]1(CC[C@@H](C)[C@@H](C[C@H](C)O)O1)[C@@H]2C | 3.2 | .
O=[N+]([O-])c1ccc(N2CCCC2)c2nonc12 | 52* | .
C[N+](C)(C)CC1CCCC1O (stereo not given) | -1.6 | 0
CCCc1c(C)nc(-c2ccc(C)cc2)nc1OC(=O)N(C)C | -2.3 | .
CCCCc1nc2ccccc2c(=O)n1-c1ccc(C)cc1 | 1.5 | 5
NCCc1nc2cc(C(F)(F)F)ccc2s1 | . | 4
Cc1cc(C(=O)O)nn1C(C)(C)C | -2.0 | .
COc1ccccc1NC1=NC(C)(C)CS1 | 0.6 | -13
COc1ccc2oc3c(c2c1)NC(=O)CN=C3c1ccc(F)cc1 | . | -33
CC1=C(C(=O)OCc2ccccc2)C2(C(=O)Nc3ccccc32)C(C#N)=C(N)O1 (stereo not given) | -12 | .
Cc1cccc(NC(N)=S)c1 | 1.8 | 9
CCCCc1ncc(CNCCc2c(C)[nH]c3ccc(OC)cc23)[nH]1 | . | 15

Going on with the list.
Structure | MgrA-DNA mod | Sa helicase inh
CC(C)(C)P(=O)(c1ccncc1)N1CCCCCC1 (stereo not given) | . | -8
Cc1[nH]c2ccccc2c1CC1C(=O)N(C)C(=O)N(C)C1=O | -0.9 | -3
CCOC(=O)C1=C(N)Oc2c(c(=O)[nH]c3ccccc23)C12C(=O)Nc1ccccc12 (stereo not given) | -2.9 | 6
O=C1NC(=O)C(=Cc2cn(Cc3ccccc3)c3ccccc23)C(=O)N1 | 25 | -26
COc1cc2c3c(c1OC)-c1ccccc1CC3N(C)CC2 (stereo not given) | . | 10
COc1ccc(CCN2C(=O)NC(=O)C(CCc3ccncc3)(CCc3ccncc3)C2=O)cc1OC | -0.1 | 0
CN1C(=O)C(=Cc2ccccc2OS(=O)(=O)c2ccccc2)C(=O)N(C)C1=O | -1.2 | .
CN1CCc2c(c(NCCO)nc3n[nH]c(N)c23)C1 | -2.2 | 13
CCN(CC)c1ncnc2sc3c(c12)CCC(C#N)(c1ccccc1)C3 (stereo not given) | . | 1
CC(C)(Br)C(=O)Nc1nccs1 | -1.4 | 5
CN(C)C(=O)Oc1ccnc(SCc2c(F)cccc2Cl)n1 | -0.8 | .
Cc1ccc(S(=O)(=O)N2CCCCC2)cc1C(=O)Oc1cccc2cccnc12 | 0.0 | 5
CNC(C)c1ccc2c(c1)OCCO2 (stereo not given) | -1.6 | 6
Cc1ccc(NC2=NCC(C)(C)S2)cc1 | -0.2 | .
CN(C)C(=O)Oc1nnc(SCC(=O)c2ccc3c(c2)OCCO3)n1C1CC1 | . | -11
Cn1c(=O)n(C)c(=O)n(C)c1=O | . | 17
C=CCOC(=O)C1=C(C)OC(N)=C(C(=O)OC)C12C(=O)Nc1ccccc12 (stereo not given) | -1.4 | 7
N=C1C(NO)=NC(c2ccccc2)N1O (stereo not given) | 2.3 | .
COc1cc2c(c(OC)c1OC)-c1ccc(O)c(=O)cc1C(N)CC2 (stereo not given) | 3.5 | .
O=P1(N2CCCCCC2)CC=CC1 | . | 3
Cc1ccccc1OCCCn1cc(C(=O)C2CC2)c2ccccc21 | -0.3 | 18
CCC(=O)c1nc2ccccc2c(=O)n1-c1ccccc1C | -0.8 | 1
Cc1cc(Br)c(NC(=O)C(Cl)(Cl)Cl)c(Br)c1 | -1.4 | .
Nc1ccc2c(c1)Cc1ccccc1-2 | . | -36
C[C@]12N[C@H](Cc3ccccc31)c1ccccc12 | 0.9 | .

Bioassay records from PubChem.

Only part of the results is shown, so the mix of outcomes need not match the whole.
